GLA inh pH 4.5 = inhibitors of human alpha-galactosidase A at pH 4.5. purified enzyme, 4-MU-alpha-Gal fluorescence, pH 4.5. AID 1467. activity change, negative = inhibition, % at 105 µM. 230,000 tested, under 10 active; inconclusive = small, poorly fitted or top-dose-only inhibition, or a rising curve; inactive = flat fitted curve, though single readings scatter; no compound was filed as active;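 also: 0% = full activity with enzyme and -100% = basal without enzyme; dose as in the result columns while the protocol names 77 µM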
miR-21 FLuc = miR-21 reporter, rising signal; HeLa miR-21 FLuc reporter, luciferase, 48 h; Potency, µM (titrated, usually from 38.3 µM), for the others: at the top dose reporter change, positive = more light; 340,000 tested, under 10 active; active = well fitted rising curve with a large enough effect; inconclusive = small, poorly fitted or top-dose-only effect; inactive = no such curve, though single readings can be large or run the other way;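 also: % of control where 0% means no effect; miR-21 action dims this reporter so a rising signal means less miR-21 action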
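HeLa miR-21-FLuc reporter line, endogenous miR-21; 2000 cells/well in DMEM/10% FBS; compound titration up to ~40uM final, 48 h, 37 degree Celsius; luciferase detection reagent, 15 min lysis, CCD luminescence.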
Rango dissoc inh = prevents RanGTP from dissociating the Rango-importin beta complex. O95149+P62826. Biochemical FRET Rango-importin beta, RanGTP-induced dissociation. Potency, µM (doses to about 46.1 µM), inactives show top-dose activity change, negative = inhibition. 340,000 tested, 0.071% active. AID 540253; active means falling FRET ratio curve, often poorly fitted, with flat reads before Ran was added; inconclusive means other falling curves, or compound fluorescence or quenching; inactive means flat or rising ratio curve;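 also: potency is read from the fitted curve at half-maximal effect; % of control where 0% means no effect; nearly all actives have a fitted effect of over 45% in size; -100% = wells without RanGTP and RCC1; the record marks most hits as doubtful in a second field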
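Recombinant Rango FRET biosensor (EYFP–snurportin 1 IBB–cerulean CFP10) at 0.1 uM premixed with 0.25 uM importin beta in PBS, 1 mM DTT, 0.02% Tween-20, 0.1% BSA. Compound added 5 min; RanGTP-RCC1 (0.6 uM Ran, 2 mM GTP, 0.2 uM RCC1) then triggers release, read at 45 min.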
Rango complex inh = Rango-importin beta binding inhibition | Q14974 | Rango CFP/YFP FRET sensor + importin beta, 45 min | Potency, µM (top dose mostly 92.2 µM), inactives show top-dose inhibition of complex formation | 340,000 tested, 0.031% active | AID 540263; active = rising FRET ratio curve, often small or poorly fitted; inconclusive = mostly compound fluorescence or quenching in the first reads; inactive = flat curves in all reads;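 also: potency is read from the fitted curve at half-maximal effect; 0% = DMSO wells and 100% = buffer wells lacking importin beta; nearly all actives have a fitted effect of over 15% in size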
Target sequence (Q14974 whole entry, looked up): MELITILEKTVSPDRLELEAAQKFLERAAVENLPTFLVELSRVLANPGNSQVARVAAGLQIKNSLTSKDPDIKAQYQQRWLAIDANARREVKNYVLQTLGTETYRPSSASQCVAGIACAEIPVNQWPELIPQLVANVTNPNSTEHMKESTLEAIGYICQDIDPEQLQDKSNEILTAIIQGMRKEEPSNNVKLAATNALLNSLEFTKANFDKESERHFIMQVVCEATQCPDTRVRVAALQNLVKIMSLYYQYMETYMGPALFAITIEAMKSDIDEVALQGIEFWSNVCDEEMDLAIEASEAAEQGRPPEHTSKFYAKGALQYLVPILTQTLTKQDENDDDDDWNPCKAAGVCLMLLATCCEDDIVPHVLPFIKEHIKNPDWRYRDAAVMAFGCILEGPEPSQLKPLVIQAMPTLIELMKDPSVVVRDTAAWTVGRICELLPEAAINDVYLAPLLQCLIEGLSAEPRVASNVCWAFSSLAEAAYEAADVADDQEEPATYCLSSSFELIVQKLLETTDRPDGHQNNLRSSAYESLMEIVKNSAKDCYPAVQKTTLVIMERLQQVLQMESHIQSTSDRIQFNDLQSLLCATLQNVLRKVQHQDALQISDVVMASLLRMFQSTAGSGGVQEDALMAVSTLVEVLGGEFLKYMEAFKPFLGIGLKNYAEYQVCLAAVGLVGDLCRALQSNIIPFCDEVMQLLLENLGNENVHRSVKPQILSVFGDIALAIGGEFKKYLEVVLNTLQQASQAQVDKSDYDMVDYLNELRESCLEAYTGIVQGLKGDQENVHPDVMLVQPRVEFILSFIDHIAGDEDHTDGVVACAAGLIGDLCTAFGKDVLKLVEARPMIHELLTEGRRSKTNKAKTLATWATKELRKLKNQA
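FRET biosensor Rango (snurportin 1 IBB between N-terminal EYFP and C-terminal Cerulean), 50 nM in PBS/1 mM DTT/0.02% Tween-20/0.1% BSA, preincubated 5 min RT with compound; 0.125 microM importin beta added, 45 min RT, CFP/YFP FRET ratio read.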
* = called active by the depositor; ? = inconclusive; · = no result given; & = joins results of further samples. Not all compounds are listed; the hit share may differ from the screen's.

SMILES	GLA inh pH 4.5	miR-21 FLuc	Rango dissoc inh	Rango complex inh
CN(C)CCCN1c2ccccc2Sc2ccccc21	-24.4&-16.1&-7.7&3.5	10.1%	7.6%	5.5%
CC(=O)O[C@]1(C(C)=O)CC[C@H]2[C@@H]3C=C(Cl)C4=CC(=O)[C@@H]5C[C@@H]5[C@]4(C)[C@H]3CC[C@@]21C	·	·	?	-0.5%&-3.2%
N=C(N=C(N)N)N1CCOCC1	3.8	·	3.6%	0.8%
Cc1coc2c1C(=O)C(=O)c1c-2ccc2c1CCCC2(C)C	-2.8&8.3&2.3	-0.7%	-0.2%	0.3%
CCCCCCCCO	·	·	4.9%	-2.3%
O=C1N(c2ccccc2)c2ccccc2C1(Cc1ccncc1)Cc1ccncc1	0.4&6.5&0.5	1.7%	-10.8%	-3.4%
Cc1cc2c(s1)Nc1ccccc1N=C2N1CCN(C)CC1	0.1&3.3&-1.4	3.4%	23.9%	-0.1%
COc1ccccc1OCC(O)COC(N)=O (centres undefined)	4.0&-2.3	-1.9%	-8.3%	6.0%
CCCn1ncc(CN2CCCC(C(=O)c3cccc(OC(C)C)c3)C2)c1C (centres undefined)	-11.9	1.8%	-1.2%	-0.5%
COc1ccc(CN(CCN(C)C)c2ccccn2)cc1	-1.6&-11.3&-1.3&-17.9	-7.1%	16.9%&15.0%&-12.8%	?
CCOc1ccc(S(=O)(=O)N2CCCCCC2)c2ccccc12	-18.0	-13.2%	0.3%	1.3%
COc1c(O)cc2c(c1O)C1OC(CO)C(O)C(O)C1OC2=O (centres undefined)	·	·	11.9%	1.3%
CC(=O)N1C[C@H](O)C[C@H]1C(=O)O	·	·	-0.5%	1.2%
CC(C)Cn1cnc2c1c(=O)n(C)c(=O)n2C	2.0	-3.8%	5.6%	-0.5%
CC1=NN(c2ccccc2)C(=O)C1	0.4&8.4&-0.7	1.7%	15.1%	-1.0%

Molecules listed so far with sulfur (3):
SMILES	GLA inh pH 4.5	miR-21 FLuc	Rango dissoc inh	Rango complex inh
CN(C)CCCN1c2ccccc2Sc2ccccc21	-24.4&-16.1&-7.7&3.5	10.1%	7.6%	5.5%
Cc1cc2c(s1)Nc1ccccc1N=C2N1CCN(C)CC1	0.1&3.3&-1.4	3.4%	23.9%	-0.1%
CCOc1ccc(S(=O)(=O)N2CCCCCC2)c2ccccc12	-18.0	-13.2%	0.3%	1.3%

(more compounds)
SMILES	GLA inh pH 4.5	miR-21 FLuc	Rango dissoc inh	Rango complex inh
CC1(C)OC2CC3C4CC(F)C5=CC(=O)C=CC5(C)C4(F)C(O)CC3(C)C2(C(=O)CO)O1 (centres undefined)	·	-26.8%	-19.3%	0.2%
CN(C)C/C=C(/c1ccc(Br)cc1)c1cccnc1	5.0	·	38.9%	2.8%
CN1CCC(=C2c3ccccc3CCc3sccc32)CC1	-13.1&6.4&-0.3	10.9%	-6.4%	4.6%
C[C@]12CC[C@H]3[C@@H](CCC4=CC(=O)CC[C@@]43C)[C@@H]1CC[C@@H]2C(=O)CO	·	-18.2%	-26.1%	-1.9%
Nc1cc(-c2ccncc2)c[nH]c1=O	20.0&3.7&7.7	-6.1%	?	?
O=C(O)[C@@H]1[C@H]2C[C@H]3c4[nH]c5ccccc5c4CCN3C[C@@H]2CC[C@@H]1O	·	·	?	?
O=c1cc[nH]c(=O)[nH]1	·	·	21.3%	2.7%
c1ccc2c(CC3=NCCN3)cccc2c1	3.1&1.2&7.4	-0.8%	7.1%	0.8%
C=C1c2cccc(O)c2C(=O)C2C(=O)[C@]3(O)C(=O)C(C(N)=O)C(=O)[C@@H](N(C)C)[C@@H]3[C@@H](O)[C@H]12 (some centres undefined)	·	·	-23.8%	?
Nc1ccc(C(=O)Nc2ccccc2N)cc1	·	-30.9%	-7.3%	-4.3%
C/C=C/C=N\NC(=O)c1ccncc1	·	-2.6%	29.0%	-5.5%
C[C@H]1COc2c(N3CCN(C)CC3)c(F)cc3c(=O)c(C(=O)O)cn1c23	-7.1	0.0%	14.3%	-0.2%
Cc1onc(-c2ccccc2Cl)c1C(=O)N[C@@H]1C(=O)N2[C@@H]1SC(C)(C)[C@@H]2C(=O)O	·	·	1.7%&3.4%	-3.2%&4.3%
CC(=O)[C@H]1CC[C@H]2[C@@H]3C[C@H](C)C4=CC(=O)CC[C@]4(C)[C@H]3[C@@H](O)C[C@]12C	·	-20.3%	0.4%	1.6%
Cc1nc2c3ccccc3nc(NNC(=O)CCC(=O)N3CCN(c4ccccc4)CC3)n2n1	·	2.7%&0.5%	1.2%	3.1%
O=C(O)COC(=O)Cc1ccccc1Nc1c(Cl)cccc1Cl	-4.0	-3.4%	-8.2%	-1.4%
CC1(C)O[C@H]2CC(=O)OCC23[C@H]2CC[C@@]4(C)[C@H](c5ccoc5)OC(=O)[C@H]5O[C@]54[C@]2(C)C(=O)C[C@@H]13 (some centres undefined)	·	·	-0.6%	1.5%
CCOC(=O)C1(CCOc2ccccc2)CCN(Cc2ccc(O)c(Cl)c2)CC1	·	26.4%	-11.2%	-2.3%
Cc1nnc(NS(=O)(=O)c2ccc(N)cc2)s1	4.3&6.2	-1.6%	-8.4%	0.8%
CCC[C@H](N[C@@H](C)C(=O)N1[C@H](C(=O)O)C[C@@H]2CCCC[C@@H]21)C(=O)OCC	·	·	7.6%	-2.5%
CC(C)=CC(=O)O[C@@H]1Cc2cc3ccc(=O)oc3cc2OC1(C)C	·	·	5.7%	-5.5%
COc1nc(C)nc(Cl)c1NC1=NCCN1	-2.4&-8.8&3.2	·	-20.0%&0.0%	3.3%&5.2%
O=C1NCC2(CCN(CCc3ccccc3)CC2)O1	-0.7&-5.2&-0.8&6.1	-3.5%	-0.3%	3.1%
COc1cc2nc(N3CCN(C(=O)C4COc5ccccc5O4)CC3)nc(N)c2cc1OC (centres undefined)	?	-15.3%	-15.4%	-1.8%
CCCOc1ccccc1-c1nc2n[nH]nc2c(=O)[nH]1	-5.1&11.0&5.3&-2.5	·	-10.5%	-1.0%
NS(=O)(=O)c1cc2c(cc1C(F)(F)F)NC(Cc1ccccc1)NS2(=O)=O (centres undefined)	4.9	-21.8%	8.3%	-3.0%

Rewritten bar-delimited: part of the list above
smiles | GLA inh pH 4.5 | miR-21 FLuc | Rango dissoc inh | Rango complex inh
O=C(O)COC(=O)Cc1ccccc1Nc1c(Cl)cccc1Cl | -4.0 | -3.4% | -8.2% | -1.4%
CC1(C)O[C@H]2CC(=O)OCC23[C@H]2CC[C@@]4(C)[C@H](c5ccoc5)OC(=O)[C@H]5O[C@]54[C@]2(C)C(=O)C[C@@H]13 (some centres undefined) | · | · | -0.6% | 1.5%
CCOC(=O)C1(CCOc2ccccc2)CCN(Cc2ccc(O)c(Cl)c2)CC1 | · | 26.4% | -11.2% | -2.3%
NS(=O)(=O)c1cc2c(cc1C(F)(F)F)NC(Cc1ccccc1)NS2(=O)=O (centres undefined) | 4.9 | -21.8% | 8.3% | -3.0%
CCCOc1ccccc1-c1nc2n[nH]nc2c(=O)[nH]1 | -5.1&11.0&5.3&-2.5 | · | -10.5% | -1.0%
CCC[C@H](N[C@@H](C)C(=O)N1[C@H](C(=O)O)C[C@@H]2CCCC[C@@H]21)C(=O)OCC | · | · | 7.6% | -2.5%

Exported with the structure last: five of the compounds above
| GLA inh pH 4.5 | miR-21 FLuc | Rango dissoc inh | Rango complex inh | Structure |
| --- | --- | --- | --- | --- |
| · | · | 5.7% | -5.5% | CC(C)=CC(=O)O[C@@H]1Cc2cc3ccc(=O)oc3cc2OC1(C)C |
| -5.1&11.0&5.3&-2.5 | · | -10.5% | -1.0% | CCCOc1ccccc1-c1nc2n[nH]nc2c(=O)[nH]1 |
| · | · | 7.6% | -2.5% | CCC[C@H](N[C@@H](C)C(=O)N1[C@H](C(=O)O)C[C@@H]2CCCC[C@@H]21)C(=O)OCC |
| 4.9 | -21.8% | 8.3% | -3.0% | NS(=O)(=O)c1cc2c(cc1C(F)(F)F)NC(Cc1ccccc1)NS2(=O)=O (centres undefined) |
| 4.3&6.2 | -1.6% | -8.4% | 0.8% | Cc1nnc(NS(=O)(=O)c2ccc(N)cc2)s1 |

Source: PubChem
